Compound activity as filed in PubChem.
Lassa entry inh – blocks Lassa virus binding to or entry into cells; Lassa virus pseudotype entry inhibition, cell reporter; control for the full effect not named in the record; 300,000 tested, 1.2% active; Potency, µM (highest dose often 37.9 µM), without a hit: at the highest dose activity change, negative = inhibition, usual class: inhibitors; active means well fitted inhibition curve with a large enough effect; inconclusive means small, poorly fitted or top-dose-only effect, or effect the other way; inactive means flat fitted curve, though single readings scatter; tested in HEK293 cells; also: nearly all actives have a fitted effect of over 50% in size; luciferase read-out
2A StopGo – FMDV 2A StopGo reporter, luciferase signal; human cells with a luciferase reporter of 2A StopGo recoding; control for the full effect not named in the record; Potency, µM (highest dose often 57.9 µM), for inactives: at the highest dose signal change, negative = less light; 410,000 tested, 1.2% active; active = well fitted falling curve with a large enough effect; inconclusive = small, poorly fitted or top-dose-only effect; inactive = no such curve, though single readings can be large or run the other way; tested in HEK293T cells; also: nearly all actives have a fitted effect of over 45% in size; luciferase light after 4 h
An asterisk follows results filed as active; u = inconclusive; [ ] = dose if it differs, or a comment. % is scaled to controls: 0 for no effect and ±100 for the full control effect; potency is read from the fitted curve at half-maximal effect. Some of the compounds tested; the hit share may differ from the screen's.

Values in the order – Lassa entry inh	2A StopGo
1. Cc1ccc(N(C)C(=O)C2CCCN(c3ncnc4c3nc3n4CCCCC3)C2)cc1C (stereo not given)
 : u	u
2. COc1cccc(CC(=O)Nc2ccc3nc(Nc4cccc(C(F)(F)F)c4)cc(C)c3c2)c1
 : -22%[46.1 µM]	u
3. COc1cc(OC)c(NC(=O)N2CCC(CN3CCCC3)CC2)cc1Cl
 : 26%[46.1 µM]	-10%
4. CCNC(=O)C1CCCN(c2nn3cc(-c4ccc(C)cc4)nc3s2)C1 (stereo not given)
 : 19%[46.1 µM]	20µM*
5. Cc1cccc(Cn2cc(S(=O)(=O)c3cccc(C)c3)c(=O)c3cc(F)c(N4CCOCC4)cc32)c1
 : -21%[46.1 µM]	6%
6. CCN(CC)c1cc2c(cc1F)c(=O)c(S(=O)(=O)c1ccc(OC)cc1)cn2Cc1ccccc1
 : u	-19%
7. CC(C)CC(C(=O)NCC1CCN(Cc2ccc(F)cc2)CC1)N1Cc2ccccc2C1=O (stereo not given)
 : u	-13%
8. COc1ccc(-c2cn3nc(N4CCC(C(=O)NCc5cccc(Cl)c5)CC4)sc3n2)cc1
 : u	31%[activator]
9. O=C(COCc1cc(-c2ccco2)on1)Nc1cccc(O)c1
 : 2%[46.1 µM]	20%
10. Cc1ccc(-n2c(=O)c3c(c4cc(C)ccc4n3C)n(Cc3ccc(F)cc3)c2=O)cc1
 : 2%[46.1 µM]	-11%
11. CCCn1c2ccccc2c2cnn(CC(=O)NCCc3ccc(C)cc3)c(=O)c21
 : 2%[46.1 µM]	u
12. COc1cccc(CNC(=O)c2ccc(Cn3c(SCc4ccccc4)nc4cccnc43)cc2)c1
 : u	-5%
13. COc1ccc(OC)c(NC(=O)c2cn3c4c(ccc(Cl)c4c2=O)OC(C)C3)c1 (stereo not given)
 : 2%[46.1 µM]	-19%
14. CC(=O)Nc1ccc(NC(=O)C(c2ccccc2)N2Cc3ccccc3C2=O)cc1 (stereo not given)
 : -3%[46.1 µM]	u
15. O=C(Nc1ccc(F)cc1)c1ccc(CN2CC(=O)N3CCCCC3C2=O)cc1 (stereo not given)
 : -7%[46.1 µM]	-11%
16. COc1ccccc1CNS(=O)(=O)c1ccc2c(c1)CC(C)N2C(C)=O (stereo not given)
 : -2%[46.1 µM]	15%
17. Cc1ccc(S(=O)(=O)c2cn(C)c3cc(N4CCCCC4)c(F)cc3c2=O)cc1
 : -3%[46.1 µM]	-3%
18. Cc1cccc(NC(=O)C(Cc2ccccc2)N2Cc3ccccc3C2=O)c1C (stereo not given)
 : -17%[46.1 µM]	9%
19. O=C(COCc1cc(-c2cccs2)on1)Nc1ccc(OC(F)(F)F)cc1
 : 1%[46.1 µM]	-20%
20. COc1cc(NC(=O)N2CCSc3ccccc32)cc(OC)c1OC
 : -17%[46.1 µM]	-10%

Additional compounds follow.
Values in the order – Lassa entry inh	2A StopGo
21. COc1ccc(S(=O)(=O)c2cn(C)c3cc(N4CCCC4)c(F)cc3c2=O)cc1
 : 9%[46.1 µM]	6%
22. CCc1ccccc1NC(=O)CSc1ncc(S(=O)(=O)c2ccccc2)c(N)n1
 : 1%[46.1 µM]	-26%
23. COc1cc(OC)c(NC(=O)COCc2cc(-c3cccs3)on2)cc1Cl
 : 18%[46.1 µM]	-3%
24. CN1C(=O)Cc2cc(S(=O)(=O)NCc3ccccc3Cl)ccc21
 : 16%[46.1 µM]	71%[activator]
25. COc1ccc(Cl)cc1NC(=O)C1CCN(c2ncnc3c2nc2n3CCCCC2)CC1
 : 8%[46.1 µM]	u
26. CCOC(=O)C1=C(CN2CCN(c3ccc(OC)cc3)CC2)NC(=O)NC1c1ccc(OC)cc1 (stereo not given)
 : -27%[46.1 µM]	-26%
27. COc1ccc(Cl)cc1NC(=O)CN1C(=O)COc2ccc(S(=O)(=O)NC3CCCC3)cc21
 : -1%[46.1 µM]	1%
28. CCCn1cc(S(=O)(=O)c2cc(C)ccc2C)c(=O)c2cc(F)c(N3CCCCCC3)cc21
 : -18%[46.1 µM]	26%
29. COc1cc(Cl)c(NC(=O)CN(C)S(=O)(=O)c2ccc3[nH]c4c(c3c2)CCCC4)c(OC)c1
 : -24%[46.1 µM]	u
30. COc1ccc(-c2nc3scc(CCNC(=O)c4cccc(Br)c4)n3n2)cc1
 : 7%[46.1 µM]	-19%
31. Cc1ccc(CNC(=O)Cn2cc(S(=O)(=O)Cc3cccc(Cl)c3)c3ccccc32)cc1
 : -8%[46.1 µM]	1%
32. COc1ccc(N2CCN(c3ncnc4c3nc3n4CCCCC3)CC2)cc1
 : -12%[46.1 µM]	11µM*
33. CCn1cc(S(=O)(=O)c2cccc(C)c2)c(=O)c2cc(F)c(N3CCN(c4ccccc4)CC3)cc21
 : -2%[46.1 µM]	-1%
34. CC1=C(C(=O)Nc2cccc(F)c2)C2(CCCCCC2)OC1=O
 : -11%[46.1 µM]	-6%
35. CSc1ncc(C(=O)NCc2ccccc2Cl)c(C(F)(F)F)n1
 : 1%[46.1 µM]	5%
36. O=C(Nc1cccc(Br)c1)N1CCC(CN2CCCCCC2)CC1
 : u	13%
37. COCCN(Cc1ccco1)C(=O)Cn1ncc2c([nH]c3ccccc32)c1=O
 : -19%[46.1 µM]	-29%
38. COc1ccc(NC(=O)C2CCCN(c3ncnc4c3nc3n4CCCCC3)C2)c(OC)c1 (stereo not given)
 : 14%[46.1 µM]	-27%
39. Cc1ccc(NC(=O)C2CCCN(c3ncnc4c3nc3n4CCCCC3)C2)c(Br)c1 (stereo not given)
 : 0%[46.1 µM]	u
40. O=C(Nc1ccccc1Cl)N1CCC(CN2CCCC2)CC1
 : -3%[46.1 µM]	-5%

Further structures follow.
Values in the order – Lassa entry inh	2A StopGo
41. CCN1CCC(N(Cc2ccc(F)cc2)C(=O)Nc2cccc(C(F)(F)F)c2)CC1
 : u	0%
42. O=C(Nc1cccc(C(F)(F)F)c1)N1CCC(CN2CCCCCC2)CC1
 : 4%[46.1 µM]	-9%
43. COc1cccc(N2CCN(C(=O)c3nc(-c4ccc(Cl)cc4)n4c3CCCCC4)CC2)c1
 : u	0%
44. CCCS(=O)(=O)N1CC(=O)N(c2cccc(Cl)c2)C(C)(C(=O)NC2CCCCC2)C1 (stereo not given)
 : 0%[46.1 µM]	7%
45. Cc1ccc(-c2cn3nc(N4CCCC(C(=O)Nc5ccc(F)cc5)C4)sc3n2)cc1 (stereo not given)
 : u	-2%
46. CCCc1nc(SC)ncc1C(=O)N1CCN(c2ccc(Cl)cc2)CC1
 : -28%[46.1 µM]	u
47. Cc1ccc(S(=O)(=O)c2cn(Cc3ccccc3)c3cc(N4CCCC4)c(F)cc3c2=O)cc1C
 : 4%[46.1 µM]	19%
48. CCc1cccc(NC(=O)c2cnc(SC)nc2-c2ccccc2)c1
 : 16%[46.1 µM]	-6%
49. COc1ccccc1CNC(=O)c1cnc(SC)nc1C
 : 3%[46.1 µM]	-21%
50. COCCCNC(=O)c1ccc(Cn2c(SCc3cccc(C)c3)nc3cccnc32)cc1
 : 11%[46.1 µM]	4%
51. CCOC(=O)C1=C(CN(C)Cc2ccccc2)NC(=O)NC1c1ccc(OC)cc1 (stereo not given)
 : -24%[46.1 µM]	u
52. CCOc1ccc(CNC(=O)C2CCCN(c3nn4cc(-c5ccc(OC)cc5)nc4s3)C2)cc1 (stereo not given)
 : 7%[46.1 µM]	-20%
53. CSc1ncc(C(=O)NCc2ccccc2F)c(-c2ccccc2)n1
 : -3%[46.1 µM]	-5%
54. Cc1ccc(N2CCN(C(=O)C3CCN(c4ncnc5c4nc4n5CCCCC4)CC3)CC2)c(C)c1
 : u	u
55. Cc1ccc(Cl)cc1NC(=O)N1CCC(CN2CCCCCC2)CC1
 : 30%[46.1 µM]	-9%
56. Cc1ccccc1NC(=O)N1CCC(CN2CCCC2)CC1
 : u	-2%
57. CCC(NC(=O)Nc1cc(OC)ccc1OC)c1c(-n2cccc2)sc2c1CCN(CC)C2 (stereo not given)
 : 1%[46.1 µM]	5%
58. Cc1cc(C)c(NC(=O)COCc2cc(-c3cccs3)on2)c(C)c1
 : 26%[46.1 µM]	0%
59. Cc1cc(C)n(-c2nc3cc(Cl)ccc3nc2N2CCN(c3ccccc3F)CC2)n1
 : 0%[46.1 µM]	26%
60. Cc1oc(-c2cccc(Cl)c2)nc1Cn1c(SCc2ccc(F)cc2)nc2cccnc21
 : 17%[46.1 µM]	-18%

Exported as tab-separated lines: entries from further up
entry	smiles	Lassa entry inh	2A StopGo
46	CCCc1nc(SC)ncc1C(=O)N1CCN(c2ccc(Cl)cc2)CC1	-28%[46.1 µM]	u
47	Cc1ccc(S(=O)(=O)c2cn(Cc3ccccc3)c3cc(N4CCCC4)c(F)cc3c2=O)cc1C	4%[46.1 µM]	19%
48	CCc1cccc(NC(=O)c2cnc(SC)nc2-c2ccccc2)c1	16%[46.1 µM]	-6%

Arranged by count of non-hydrogen atoms (low to high): part of the list above
Values in the order – Lassa entry inh	2A StopGo
51. CCOC(=O)C1=C(CN(C)Cc2ccccc2)NC(=O)NC1c1ccc(OC)cc1 (stereo not given)
 : -24%[46.1 µM]	u
45. Cc1ccc(-c2cn3nc(N4CCCC(C(=O)Nc5ccc(F)cc5)C4)sc3n2)cc1 (stereo not given)
 : u	-2%
60. Cc1oc(-c2cccc(Cl)c2)nc1Cn1c(SCc2ccc(F)cc2)nc2cccnc21
 : 17%[46.1 µM]	-18%
43. COc1cccc(N2CCN(C(=O)c3nc(-c4ccc(Cl)cc4)n4c3CCCCC4)CC2)c1
 : u	0%

The listing picks up, repeating the 2 entries before the break.
Values in the order – Lassa entry inh	2A StopGo
59. Cc1cc(C)n(-c2nc3cc(Cl)ccc3nc2N2CCN(c3ccccc3F)CC2)n1
 : 0%[46.1 µM]	26%
60. Cc1oc(-c2cccc(Cl)c2)nc1Cn1c(SCc2ccc(F)cc2)nc2cccnc21
 : 17%[46.1 µM]	-18%
61. Cc1cccc(Cn2c(SCc3ccc(C(=O)NCc4ccccc4F)cc3)nc3cccnc32)c1
 : u	-25%
62. CSc1ccc(CCNC(=O)C2CCN(c3ncnc4c3nc3n4CCCCC3)CC2)cc1
 : 2%[46.1 µM]	-1%
63. Cc1ccc(S(=O)(=O)c2nnn3c2nc(N2CCN(c4ccccc4F)CC2)c2ccccc23)cc1C
 : 19%[46.1 µM]	14%
64. COc1ccc(-c2cn3nc(N4CCC(C(=O)Nc5cc(Cl)ccc5C)CC4)sc3n2)cc1
 : 17%[46.1 µM]	17%
65. CCc1ccc(NC(=O)c2ccc(CN3CC(=O)N4CCCCC4C3=O)cc2)cc1 (stereo not given)
 : 6%[46.1 µM]	-8%
66. CC(C)(C)NC(=O)Cn1cc(S(=O)(=O)Cc2ccc(F)cc2)c2ccccc21
 : 15%[46.1 µM]	12%
67. Cc1cc2c(cc1S(=O)(=O)Nc1cccc(Cl)c1C)n(C)c(=O)c(=O)n2C
 : u	36%[activator]
68. CCn1cc(S(=O)(=O)c2cccc(Cl)c2)c(=O)c2cc(F)c(N3CCC(C)CC3)cc21
 : 15%[46.1 µM]	26%
69. CCCN1CCN(c2cc3c(cc2F)c(=O)c(S(=O)(=O)c2ccc(Cl)cc2)cn3C)CC1
 : -7%[46.1 µM]	u
70. Cc1ccc(Cn2cc(S(=O)(=O)c3ccc(C)cc3)c(=O)c3cc(F)c(N4CCCC4)cc32)cc1
 : 1%[46.1 µM]	-5%
71. Cc1ccc(NC(=O)CN2Cc3ccccc3C2=O)c(C)c1
 : -6%[46.1 µM]	-15%
72. CC1Cc2cc(S(=O)(=O)NCc3ccc(Cl)cc3)ccc2N1C(=O)C1CCC1 (stereo not given)
 : -6%[46.1 µM]	-16%
73. O=C(COCc1cc(-c2ccc3c(c2)OCO3)on1)Nc1cccc(O)c1
 : 4%[46.1 µM]	-23%
74. COc1ccc(Cn2c(SCc3ccc(C(=O)NC4CCCC4)cc3)nc3cccnc32)cc1
 : -4%[46.1 µM]	-4%
75. COc1ccc(NC(=O)Cn2c(SCc3ccc(F)cc3)nc3cccnc32)c(OC)c1
 : 25%[46.1 µM]	4%
76. Cc1ccc(S(=O)(=O)c2cn(C)c3cc(N4CCCC4)c(F)cc3c2=O)c(C)c1
 : -10%[46.1 µM]	-17%
77. CCS(=O)(=O)N1CC(=O)N(c2cc(Cl)ccc2C)C(C)(C(=O)NC2CCCCCC2)C1 (stereo not given)
 : 2%[46.1 µM]	6%
78. COc1ccc(-c2cn3nc(N4CCC(C(=O)NCc5ccccc5F)CC4)sc3n2)cc1
 : 21%[46.1 µM]	20%
79. CCCN(C(=O)Cn1ncc2c([nH]c3ccccc32)c1=O)c1ccc(F)cc1
 : -14%[46.1 µM]	u
80. CCOc1ccc(NC(=O)NC(C)c2c(-n3cccc3)sc3c2CCN(CC)C3)cc1 (stereo not given)
 : 12%[46.1 µM]	10%
81. CN(C)CCNC(=O)CCCN1C(=O)c2cccnc2Oc2ccc(Cl)cc21
 : 29%[46.1 µM]	-1%
